VACV Venus inh: inhibitors of vaccinia virus (Venus reporter); Vaccinia virus Venus reporter expression, fluorescence; Potency, µM (highest dose often 36.5 µM), inactives show top-dose activity change, negative = inhibition, most hits filed as inhibitors; 330,000 compounds, 0.46% hits; AID 720580; active means well fitted inhibition curve with a large enough effect; inconclusive means small, poorly fitted or top-dose-only effect; inactive means no such curve, though single readings can be large or run the other way; tested in A549 cells; note: nearly all actives have a fitted effect of over 30% in size; inactives centre near -10
VACV mCherry inh: vaccinia inhibition (mCherry reporter); Vaccinia virus mCherry reporter infection, fluorescence; about a quarter of the inactives have no number; Potency, µM (highest dose often 36.5 µM), for the others: at the top dose activity change, negative = inhibition, usual class: inhibitors; 310,000 compounds, 0.63% hits; AID 720579; active = well fitted inhibition curve with a large enough effect; inconclusive = small, poorly fitted or top-dose-only effect; inactive = no such curve, though single readings can be large or run the other way; tested in A549 cells; note: nearly all actives have a fitted effect of over 35% in size; inactives centre near -10
Active calls of the source: *; i = inactive; ? = inconclusive; · = not tested or not shown; & = joins results of further samples; [ ] = another dose, or the depositor's remark. % is set by controls: 0 for no effect and ±100 for the full control effect; potency is the fitted concentration of half-maximal effect.

SMILES	VACV Venus inh	VACV mCherry inh
Cc1cc2ncn(CC3CC3(Cl)Cl)c2cc1C (stereo not given)	-8%	-21%
CC(=O)c1c(N2CCN(c3ccccc3)CC2)nc(=S)n(-c2ccccc2)c1C	14%	5%
CC(=O)Nc1ccc(NC(=O)CCCN2C(=O)C(c3ccccc3)Oc3cccnc32)cc1 (stereo not given)	-11%	-29%
COc1ccccc1NC(=O)N1CCN(Cc2ccc3c(c2)OCO3)CC1	-18%	-8%
CCOc1ccc(NC(=S)NCc2cccnc2)cc1	0%	i
Cc1cccc(C)c1Nc1nn2c(=O)c3cc4c(cc3nc2s1)OCO4	?	?
O=c1cc(-c2ccccc2Cl)oc2c(NS(=O)(=O)c3cccc4nsnc34)ccc(O)c12	-27%	?
O=C(NCc1ccco1)C(=O)c1cn(CC(=O)N2CCCC2)c2ccccc12	-10%	i
Cc1cccc(NC(=O)c2nc[nH]c2C(=O)N[C@@H](C)C(=O)OC(C)(C)C)c1	?	-24%
Cc1cc(=O)n(-c2ccccc2Cl)[nH]1	-6%	i
Cc1ccnc2c(N3C(=O)C4C5C=CC(C5)C4(C)C3=O)cccc12 (stereo not given)	-4%	-6%
Cc1cc(C)c(S(=O)(=O)Nc2ccc3oc4c(c3c2)C(=O)CC(C)(C)C4)cc1C	-8%	-6%
Cc1ccc(C(CC(=O)c2ccc(Cl)cc2)C(=O)O)cc1 (stereo not given)	-13%	i
CNC(=S)N(C1=NCC(c2ccc([N+](=O)[O-])cc2)S1)c1ccccc1 (stereo not given)	-8%	?
O=C(Nc1ccccc1F)c1cc(Cl)sc1Cl	-5%	-7%

Reformatted: 5 of the compounds above.
Order of results: VACV Venus inh	VACV mCherry inh
- Cc1cccc(C)c1Nc1nn2c(=O)c3cc4c(cc3nc2s1)OCO4
    ?	?
- O=c1cc(-c2ccccc2Cl)oc2c(NS(=O)(=O)c3cccc4nsnc34)ccc(O)c12
    -27%	?
- O=C(NCc1ccco1)C(=O)c1cn(CC(=O)N2CCCC2)c2ccccc12
    -10%	i
- Cc1cccc(NC(=O)c2nc[nH]c2C(=O)N[C@@H](C)C(=O)OC(C)(C)C)c1
    ?	-24%
- Cc1cc(=O)n(-c2ccccc2Cl)[nH]1
    -6%	i

(list continues)
SMILES	VACV Venus inh	VACV mCherry inh
CCN(CC(=O)NCc1cccs1)C(=O)c1ccc(NS(=O)(=O)c2ccc(F)cc2)cc1	-12%	-19%
Cc1cccc(NC(=O)CCNS(=O)(=O)c2cc(Br)cnc2N)c1C	-23%	i
CCc1nnc(SCc2cc(C)ccc2C)c2cc3sc(C)cc3n12	-15%	0%
COc1ccc(S(=O)(=O)N2CCCC2)cc1OC	3%	-17%
C/C(=N\NC(=O)c1ccc(Cn2cc(Br)cn2)o1)c1cccc(NC(=O)C(C)C)c1	-25%	-28%
O=C(Nc1ccc(Cl)cc1Cl)C1=Cc2ccccc2OC1	-17%	-26%
CN(c1ccc(C(=O)N2CCCCCC2)cc1)S(=O)(=O)c1ccc(Cl)cc1	-21%	-6%
COc1ccc(Cc2nnc(N/N=C/c3ccccc3O)[nH]c2=O)cc1OC	1.3µM*	1.3µM*
O=C(O)CN1C(=O)c2cccc3c(Br)ccc1c23	-3%	-1%
CC1CCCC(C)N1C(=O)COC(=O)Cc1ccc(F)cc1 (stereo not given)	-14%	-1%
COc1ccc(S(=O)(=O)NCC2CCCN(CC(C)(C)C)C2)cc1 (stereo not given)	-7%	-17%
COc1ccc(S(=O)(=O)N(CC(=O)Nc2ccc(F)c(Cl)c2)c2ccc(C)cc2)cc1OC	-9%	-9%
Cc1cccc(OCCNC(=O)c2ccc(Oc3ccc(C(F)(F)F)cc3[N+](=O)[O-])cc2)c1	-17%	-18%
Cc1cccc(NC(=O)CSc2nnc(CCC(=O)Nc3ccc(C)c(Cl)c3)n2C)c1	?	?
O=C(c1ccc(N2CCCCCC2)c([N+](=O)[O-])c1)N1CCC2(CC1)OCCO2	-20%	-6%
CC(=O)[C@]1(O)Cc2c(O)c3c(c(O)c2[C@@H](O[C@H]2C[C@H](N)[C@H](O)[C@H](C)O2)C1)C(=O)c1ccccc1C3=O	497%[activator]	35%[activator]
CCOC(=O)C(C(=O)OCC)C(CC(=O)C1CC1)c1ccccc1 (stereo not given)	-12%	-22%
Cn1nc(-c2ccc(Cl)cc2)c2cc(C(=O)N3CCN(C(=O)c4ccco4)CC3)sc21	-17%	i
Cc1ccc(Cn2c(C)c3cnn(CC(=O)N4CCC5(CC4)OCCO5)c(=O)c3c2C)cc1	?	·
CCC(Sc1ncc(S(=O)(=O)c2ccc(Cl)cc2)c(=O)[nH]1)C(=O)Nc1ccc(OC)cc1 (stereo not given)	5%	10%
O=C(CN1C(=O)CCc2cc(S(=O)(=O)N3CCOCC3)ccc21)NCc1ccc(F)cc1	-3%	-12%
O=C(Nc1ccc2[nH]c(=O)[nH]c2c1)C(F)(F)F	-9%	-7%
O=C(CSCC(=O)OCC(=O)N1CCN(C(=O)c2ccco2)CC1)Nc1ccc(Cl)cc1	-18%	i
O=C(O)c1cc([N+](=O)[O-])cc2c1C=Cc1ccccc1O2	9%	-11%
CC[C@]12c3[nH]c4cc(-c5ccco5)ccc4c3CCN1C(=O)[C@@H](CC(=O)NCc1ccc(OC)c(OC)c1)C[C@@H]2C(=O)N1CCN(C(=O)c2ccco2)CC1	?	?
Cc1ccc(C(=O)OCC(=O)c2c[nH]c3ccccc23)cc1S(=O)(=O)N1CCOCC1	-16%	?
Cn1cnnc1SCCNS(=O)(=O)c1ccccc1	-22%	·
Cc1cc(C)c2cc(CN(Cc3nnnn3C3CCCCC3)CC3CCCO3)c(=O)[nH]c2c1 (stereo not given)	-13%	i
O=S(=O)(NC1CCSc2ccccc21)c1ccc(Cl)nc1 (stereo not given)	-11%	-14%
COc1ccc(S(=O)(=O)Nc2ccccc2)cc1OC	?	-24%
Cc1ccc(C(=O)N/C(=C/C=C/c2ccccc2)C(=O)NCc2ccco2)cc1	-24%	·
O=C(CSC1c2ccccc2-c2ccccc21)N/N=C/c1ccc(C(=O)O)cc1	-4%	-2%
CCN1C(=O)/C(=C/N(C)c2ccccc2)OC1=S	-7%	-23%
Cc1nc2cc(NS(=O)(=O)c3c(C)c(C)cc(C)c3C)ccc2s1	?	?
c1ccc(-c2ccc3nncn3c2)cc1	-3%	i
O=C(C[n+]1ccc(-c2nnc3n2CCC3)cc1)c1ccc(Cl)cc1	-9%	i
O=C1CCC(CCC(=O)N2CCCC(C(=O)c3cccc(C(F)(F)F)c3)C2)=NN1 (stereo not given)	-3%	i
COc1ccc(-n2ccnc2SCC(=O)NCc2ccc3c(c2)OCO3)cc1	-14%	·
Cc1cc(C(=O)N(NC(=O)C(C)C)c2ccccc2)cs1	-13%	-4%
Cc1nc2scc(-c3cccs3)c2c(=O)[nH]1	-17%	-9%
CC(=O)c1cc(C(C)=O)c(C)[n+](C)c1C	4%	-8%
O=C(Nc1ccccc1C(=O)N1CCCCC1)c1cccc(S(=O)(=O)N2CCOCC2)c1	-17%	·
COn1c(=S)[nH]c2ccccc2c1=O	-3%	-5%
COc1cc(-c2noc(-c3ccc(NC4CCCCC4)c([N+](=O)[O-])c3)n2)cc(OC)c1OC	2%	4%
CCN(CCCNC(=O)CN1N=C(c2ccccc2)CCC1=O)c1cccc(C)c1	-7%	-14%

Copied from the results shown (2 entries):
SMILES	VACV Venus inh	VACV mCherry inh
Cc1ccc(C(=O)N/C(=C/C=C/c2ccccc2)C(=O)NCc2ccco2)cc1	-24%	·
O=C(CSC1c2ccccc2-c2ccccc21)N/N=C/c1ccc(C(=O)O)cc1	-4%	-2%

Other entries.
SMILES	VACV Venus inh	VACV mCherry inh
O=C1NC[C@@H](CCCCN2CCN(Cc3ccccc3)C(=O)C2=O)N(CC2CCCCC2)C1=O	-4%	20%
Cc1cc(C)cc(NC(=O)N2CCCN(c3c(Cl)cncc3Cl)CC2)c1	5%	-3%
O=c1[nH]c(SCc2ccccc2)nc2[nH]ncc12	-3%	i
O=C(Nc1nnc(-c2ccc3c(c2)CCCC3)o1)c1c(F)cccc1F	-7%	-7%
COc1ccccc1C1N(c2cc(Cl)ccc2OC)C(=O)C2CCCN21 (stereo not given)	0%	-10%
c1ccc2c(Cc3c[nH]c4ccccc34)c[nH]c2c1	-9%	-10%
CCOC(=O)c1cnc2c(c(C)nn2C)c1Oc1cc(Cl)cc(Cl)c1	-13%	-11%
O=C1NC(=O)C(=Cc2ccc(-c3ccccc3[N+](=O)[O-])o2)C(=O)N1	-17%	i
COc1ccc(Cl)c2sc(N(Cc3cccnc3)C(C)=O)nc12	-13%	i
Cn1c(=O)c2c(ncn2CC(=O)N2CCCc3ccccc32)n(C)c1=O	-9%	·
O=C1c2nccnc2C(=O)N1c1ccc(C(F)(F)F)cc1	1%	-10%
CCOc1ccc2nc(COC(=O)c3cccc([N+](=O)[O-])c3)c(C(C)=O)[n+]([O-])c2c1	-9%	i
COc1ccccc1CN(Cc1ccco1)c1cnc(S(C)(=O)=O)nc1C(=O)Nc1cc(C)ccc1C	-12%	-11%
CCOC(=O)c1ccc(NC(=O)CCNc2c(N3CCCC3)c(=O)c2=O)cc1	-18%	·
CCC(=O)N1CCc2cc(Br)cc(S(=O)(=O)CCC(=O)N3CCN(c4cccc(C)c4)C(C)C3)c21 (stereo not given)	-11%	-17%
CCOC(=O)N1CCN(c2c(NCc3ccccn3)c(=O)c2=O)CC1	-7%	-1%
COc1ccccc1-c1c(C)nn2c(N3CCC(C)CC3)cc(C)nc12	-2%	-5%
O=S(=O)(c1cnc(Cl)c(Cl)c1)N1CCN(c2ncccn2)CC1	-4%	0%
Cc1ccc(CN(Cc2ccco2)C(=O)c2ccc(Cl)cc2Cl)cc1	-12%	-17%
C=CCSc1nc2c(c(=O)[nH]c(=O)n2C)n1C(C)C	-13%	·
O=C(CC(NC(=O)c1ccccc1)c1ccccc1)OCc1nc(-c2cccc(Cl)c2)no1 (stereo not given)	-6%	-18%
CCSc1nc(-c2ccccc2)c(C#N)c(=O)[nH]1	-6%	-7%
COc1ccc(S(=O)(=O)NCC(=O)O)cc1C(=O)NC1CCCCC1	-6%	-11%
COc1ccc2[nH]cc(CCNC(=O)Nc3ccccc3)c2c1	-14%	-20%
Cc1cccc(CSc2ncccc2C(=O)O)c1	-8%&-11%	-13%&-11%
COc1ccc(C2CC(=O)N(Cc3ccc(F)cc3)c3ccccc3S2)cc1OC (stereo not given)	-17%	-23%
Cc1ccc([N+](=O)[O-])cc1S(=O)(=O)N1CCCCC1C(=O)O (stereo not given)	-3%	2%
C[C@@H]1CN([C@@H](C)CO)C(=O)CCCn2nncc2CO[C@@H]1CN(C)S(=O)(=O)c1ccc2c(c1)OCCCO2	-5%	-1%
CSc1nc2sc3c(c2c(=O)n1-c1ccc(C)cc1)CCCC3	?	?
CCn1c(=S)sc2c(=O)n(CC(=O)Nc3ccc(C(C)=O)cc3)c(C)nc21	-2%[7.34 µM]	-5%[7.34 µM]

Complete entries, looked up by structure. Order of screens: VACV Venus inh | VACV mCherry inh
Shown for O=C(CC(NC(=O)c1ccccc1)c1ccccc1)OCc1nc(-c2cccc(Cl)c2)no1 (stereo not given) → -6% | -18%
Shown for COc1ccc(C2CC(=O)N(Cc3ccc(F)cc3)c3ccccc3S2)cc1OC (stereo not given) → -17% | -23%
Shown for CCSc1nc(-c2ccccc2)c(C#N)c(=O)[nH]1 → -6% | -7%

The results go on:
SMILES	VACV Venus inh	VACV mCherry inh
O=C(NCCCNC(=O)c1cnccn1)c1cccc(F)c1	-2%	i
CCOC(=O)Cc1csc(NC(=O)CN(C)S(=O)(=O)c2cccc3cccnc23)n1	-2%	i
CC1CCN(Cc2c(O)ccc3c(=O)c(-c4cccc(Cl)c4)c(C(F)(F)F)oc23)CC1	-3%	-4%
CCCN1CNc2c(c(=O)[nH]c(=S)n2CCc2ccc(OC)c(OC)c2)C1	-16%&-15%	-2%
Fc1cccc2sc(N3CCCC3)nc12	6%	i
CN(C)S(=O)(=O)c1ccc(Cl)c(C(=O)Nc2nc3ccccc3[nH]2)c1	-15%	-7%
COc1ccc(NC(=O)CS(=O)(=O)c2cn(CC(=O)N(C(C)C)C(C)C)c3ccccc23)c(OC)c1	-14%	-19%
CCOC(=O)C1(Cc2ccccc2C(F)(F)F)CCN(Cc2ccon2)CC1	-8%	-7%
COc1cccc(C2Nc3ccccc3C(=O)N2O)c1O (stereo not given)	-21%	·
C#CCOCCOCCOCCNc1nc(N2CCN(C(=O)[C@H]([C@@H](C)CC)n3cc([C@@H](N)CC(C)C)nn3)CC2)nc(N2CCN(C(=O)[C@H](CCCCN)n3cc([C@@H](N)C(C)CC)nn3)CC2)n1 (stereo not given in full)	-1%	-14%
Cc1cccc(-n2ncc3c(NNC(=O)c4ccccc4Cl)ncnc32)c1	0%	-14%
Cc1cc(Br)cn2c(Cc3ccsc3)c(-c3cccc(Br)c3)nc12	12%	18%
COc1cccc2c1[C@@H]1CN(CCCCn3c(=O)[nH]c4c(sc5ncc(-c6ccccc6)nc54)c3=O)C[C@@H]1CO2	?	?
O=C(CN1CCOCC1)Nc1ccc(Br)cn1	-1%	-3%
COc1ccccc1N1CCN(C2CCCN(C(=O)c3cccc(-c4ccco4)c3)C2)CC1 (stereo not given)	-27%	-19%
OC(COCc1ccco1)CN1CCN(C(c2ccccc2)c2ccccc2)CC1 (stereo not given)	-19%	·
OCCC1CN(Cc2ccon2)CCN1CCc1ccccc1 (stereo not given)	-13%	-11%
O=C(Nc1cc(Cl)ccc1Cl)c1noc2c1CCCC2	-10%	2%
Nc1ccc(SCc2nc3cccc4c3n2CCC4)cc1	-16%	i
Cc1cccc(NC(c2cccc(Cl)c2)c2ccc3cccnc3c2O)n1 (stereo not given)	?	?
O=C1Nc2ccccc2-n2nnnc2C1N1CCc2ccccc2C1 (stereo not given)	-5%	-4%

Source: PubChem
